INS promoter inh = TRM-6 insulin promoter activity inhibition; TRM-6 cells (human fetal islet line), insulin promoter-eGFP reporter, imaging; reporter expression induced with tamoxifen; 130,000 tested, 0.9% active; AID 1273; inhibition, % at 2 µM;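 active means inhibition above the mean plus 3 SD, with well images judged a real hit on visual review, cut at about 60% in these data, passing the limit was not always enough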
HSV replic up = increases HSV replication in cells | maximum fold increase | AID 1956 | HSV replication augmentation in cells, fold increase | 220,000 tested, 0.005% active;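 active means peak rise of 1.5-fold or more in the series; tested in PC3 cells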;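 further: first round at 10 µM; read as green reporter fluorescence; hits show the peak of a series up to 25 µM; 1 = signal of infected wells without compound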
PKD1 kinase inh = PKD1 (human) kinase inhibition | 200,000 tested, 0.056% active | PKD1 kinase fluorescence polarization assay | inhibition, %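 (about 10 µM by stock and volumes)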;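 active means inhibition of 50% or more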;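 further: controls were vehicle for no effect and a reference inhibitor for full effect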
GALR2 agonist = GALR2 (human) receptor agonism; O43603; GALR2-expressing cells, agonist activation read-out; activation, %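 (tested at 5 µM)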; 140,000 tested, 0.48% active; AID 803;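 active means above mean plus 3 SD of all compounds, about 5% in these data, not always enough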;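 further: 0% = vehicle buffer wells and 100% = reference agonist at full effect; tested in CHO reporter cells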
RGS16-Gao = RGS16-Galphao interaction regulator (human) | O15492+P09471 | bead-based flow cytometry RGS16-Galphao binding, fluorescence; actives lie on both sides | binding response (% of control), % at 10 µM | 220,000 tested, 0.38% active | AID 1441;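 active means below 25% or above 175%, edge rows of some plates excepted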;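 further: Galphao activated by GDP with aluminum fluoride before binding; 100% = wells without compound and 0% = beads without RGS; some results beyond the cut were filed as inactive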
Target sequence (O15492 whole entry, looked up): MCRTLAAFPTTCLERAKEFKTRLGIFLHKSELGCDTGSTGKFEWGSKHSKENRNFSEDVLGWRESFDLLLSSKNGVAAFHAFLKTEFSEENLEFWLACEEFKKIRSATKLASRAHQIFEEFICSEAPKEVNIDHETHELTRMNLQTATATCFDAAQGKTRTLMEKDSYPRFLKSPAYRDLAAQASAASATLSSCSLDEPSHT
Target sequence (P09471 whole entry, looked up): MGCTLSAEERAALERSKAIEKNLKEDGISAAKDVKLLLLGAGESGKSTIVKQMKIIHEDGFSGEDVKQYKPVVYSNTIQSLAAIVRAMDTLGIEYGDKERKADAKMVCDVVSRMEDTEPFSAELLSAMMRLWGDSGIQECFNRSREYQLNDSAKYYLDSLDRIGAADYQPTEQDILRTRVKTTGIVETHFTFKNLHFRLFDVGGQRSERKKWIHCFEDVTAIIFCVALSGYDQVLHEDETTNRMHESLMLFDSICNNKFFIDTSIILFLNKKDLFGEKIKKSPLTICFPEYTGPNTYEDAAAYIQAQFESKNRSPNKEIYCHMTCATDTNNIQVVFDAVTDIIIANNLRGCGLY
INS promoter inh cell count = recorded beside INS promoter inh, whose call it bears; normalized cell count, %; measured here: cell count, toxicity; reference of the scale not given here;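 cells exposed to compound for 48 h; stained nuclei by imaging scaled within each plate; lower means fewer cells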
HSV replic up primary fold = second read-out of HSV replic up, no call of its own (marks repeat the call); fold increase; compound at 10 µM; measured here: primary screen fold increase 10 uM; tested in PC3 cells;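 GFP signal in the first replicate; 1 = infected wells without compound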
The depositor's hits bear a star; i = inactive; x = not tested or not shown.

molecule	INS promoter inh	INS promoter inh cell count	HSV replic up	HSV replic up primary fold	PKD1 kinase inh	GALR2 agonist	RGS16-Gao
COc1ccc2c3c(cccc13)OCC2=O	-39.4	107.4	i	1.03	4.0	-1.7	77.7
Cc1cccn2c(CN3CCCN(C=O)CC3)c(C(=O)N(C)CCc3ccccc3)nc12	x	x	i	1.05	-6.5	x	98.3
O=C(c1cc2cc(Br)ccc2oc1=O)N1CCCC1	x	x	i	0.89	2.0	0.3	142.0
COc1cccc(NC(=O)c2cn(C)c(=O)c3cc(OC)c(OC)cc23)c1	50.0	85.4	i	0.9	9.9	-1.6	106.3
Cc1ccc(CNC(=O)C2CC3Cn4c(nc5cc6ccccc6cc54)C3N2C)o1 (configuration not stated)	x	x	i	0.95	x	x	86.0
CCCNC(=O)c1ccc2c(c1)CCN2S(C)(=O)=O	-28.6	76.2	i	0.95	-2.7	x	102.2
C/C(=N\Nc1ncc(Cl)cc1Cl)c1ccccn1	x	x	i	0.98	61.4*	x	107.5
O=C(CSc1nnc(COc2ccc(Cl)cc2)o1)N1CCN(c2ccccc2)CC1	-14.3	57.9	i	1.04	3.1	-0.6	99.0
COc1cccc(-c2nnn(CCC(=O)O)n2)c1	42.9	93.0	i	0.87	-1.0	-2.2	102.9
O=C(Oc1cccc2cccnc12)c1cccs1	35.3	81.2	i	0.73	-5.5	-0.2	104.2
O=[N+]([O-])c1ccc(Nc2ccc(Cl)cc2)nc1	7.7	113.8	i	0.84	-6.1	x	88.0
O=C(c1ccccc1)N1CCC(O)(c2ccc3c(c2)OCO3)CC1	28.6	112.6	i	0.79	-0.2	-1.2	107.7
O=C(NC(=O)c1ccccc1)OCCN1C(=O)c2ccccc2C1=O	-5.9	73.5	i	0.93	-2.1	x	93.9
Cc1ccc(NC(=O)c2sccc2-n2cccc2)c(Cl)c1	x	x	i	1.13	-2.2	x	107.1
COc1ccc2c3c(cccc13)N(C)N=C2C	-32.6	150.5	x	x	-5.5	1.0	67.4
CC1(C)COC(Cn2c3ccccc3c3ccccc32)O1 (configuration not stated)	x	x	i	0.76	x	x	94.9
O=C(CSc1ncn(-c2ccccc2)n1)N1CCc2ccccc21	-238.9	70.2	i	1.01	-9.0	-1.4	99.3
O=C(CN1CCC(NC(=O)Cc2ccccc2)CC1)Nc1ccccc1Br	x	x	i	0.95	0.9	0.7	105.4
COc1ccc(NC(=O)Nc2ccccc2F)c(C)c1	x	x	i	1.08	-11.0	x	97.2
O=C(NC(=S)NCCCN1CCOCC1)c1cccc2ccccc12	-33.3	96.8	i	0.96	-1.6	x	99.0
Cc1ccc(C(=O)N/C(=C/c2cccs2)C(=O)NCCCn2ccnc2)cc1	0.0	55.1	i	0.97	-0.3	-0.6	118.8
O=C(c1ccco1)N1CCN(S(=O)(=O)/C=C/c2ccccc2)CC1	x	x	i	1.14	-4.7	x	102.3
CC(=O)Nc1ccc(NC(C)=O)s1	3.9	115.4	i	0.88	4.6	-0.5	99.1
O=C(Nc1cccc2c1C(=O)NC2=O)c1cccnc1Cl	-19.1	130.5	i	0.93	-8.0	x	118.9
CCc1ccc2c(c1)C(c1ccncc1)=NNC(c1ccccc1)=N2	x	x	i	0.97	0.0	x	101.4
Cc1ccc(OCC(=O)NNC(=O)c2cc3ccccc3o2)cc1	-233.3	148.0	i	0.87	3.3	-3.9	22.3
COc1ccc(C)cc1NC(=O)C(NCC1CCCO1)c1ccccc1 (configuration not stated)	0.0	105.2	i	0.93	3.9	-0.1	99.0
Cc1cc(C)n(-c2ccc(C(=O)Nc3ccc4c(c3)OCO4)cc2)n1	25.0	160.9	i	0.89	-3.6	-2.4	33.1
c1ccc(-c2csc(=Nc3cccnc3)n2CC2CCCO2)cc1 (configuration not stated)	0.0	128.5	i	0.86	3.8	-0.4	104.0
O=C(NCc1ccc2c(c1)OCO2)c1ccc(CSCc2ccc(Cl)cc2)o1	-20.0	129.4	i	0.89	-4.3	-1.8	91.8
CCn1c2ccccc2c2cc(NC(=O)CSc3nnc(-c4ccccc4)o3)ccc21	-24.3	129.8	i	0.81	1.2	-0.9	100.1
O=C(Nc1cc(C(F)(F)F)ccc1Cl)C(Sc1n[nH]c(=O)[nH]c1=O)c1ccccc1 (configuration not stated)	x	x	i	0.84	x	x	92.8
COc1ccccc1NC(=S)NCCc1ccc(S(N)(=O)=O)cc1	42.9	86.2	i	0.97	2.7	x	103.4
Cc1ccnc2nc(C(=O)Nc3nc4ccccc4s3)nn12	x	x	i	0.71	x	x	95.3
CC1CCCCC1NC(=O)Cn1ncc2ccccc21 (configuration not stated)	x	x	i	0.98	-0.2	0.1	106.8
CCc1nnc(NCC(=O)N2CCc3ccccc32)s1	-18.2	60.8	i	0.95	-9.1	-2.4	102.8
Nc1nc(-c2cccc(NS(=O)(=O)c3ccccc3)c2)cs1	-74.2	165.8	i	1.02	-13.5	-2.4	107.3
O=C(N/C(=C/c1ccc(Br)cc1)c1nc2ccccc2[nH]1)c1ccco1	20.4	61.7	i	1.07	-3.0	-0.5	171.8
CCNC(=O)c1ccccc1-c1nc(-c2ccccc2OC)no1	x	x	i	1.06	x	x	103.3
Fc1ccc(Cn2nnnc2CN2CCN(C3CCCCC3)CC2)cc1	x	x	i	0.95	9.2	-1.1	100.5
CSc1cccc(NC(=O)CCNC(=O)c2ccco2)c1	46.0	105.4	i	0.97	-5.0	x	69.3
COc1cc(C(Nc2ccccn2)c2ccc3ccc(C)nc3c2O)cc(OC)c1O (configuration not stated)	x	x	i	0.56	-1.0	-1.1	100.5
CCN(CC)CCN1C(=O)C(=O)/C(=C(/O)c2ccc(C)cc2)C1c1cccnc1 (configuration not stated)	x	x	i	0.92	x	x	101.3
COc1cc(C(=O)OCC(=O)N2CCCCC2C)ccc1OCc1c(C)noc1C (configuration not stated)	x	x	i	0.89	-0.4	x	102.0
COc1ccc(O)c(/C=N/NC(=O)c2c(C)nnn2-c2nonc2N)c1	x	x	i	0.79	0.6	x	91.3
CC(NC(=O)/C(=C/c1cccc([N+](=O)[O-])c1)NC(=O)c1ccco1)C(=O)O (configuration not stated)	18.9	138.9	i	0.98	7.5	-0.7	102.3
C=CCn1c(SCC)nc2sc3c(c2c1=O)CCc1ccccc1-3	0.0	124.3	i	1.08	2.7	-1.7	100.5
CC(C)CC(C(=O)NC(C)(C)C)N(Cc1cccs1)C(=O)c1snc(C(N)=O)c1N (configuration not stated)	-190.9	66.3	i	1.04	-6.9	x	115.1
Cc1cc(NC(=O)c2c(-c3c(F)cccc3Cl)noc2C)no1	x	x	i	1	x	x	102.7
O=C(Nc1ccccn1)c1csc2c1CCCC2	x	x	i	1.05	-9.7	x	76.3
CCc1ccc(OCc2ccc(C(=O)NCc3ccccn3)o2)cc1	x	x	i	0.89	5.1	-1.5	106.5
CC(=O)c1c(C)[nH]c(C(=O)NCCN2CCC(C)CC2)c1C	x	x	i	1.05	-2.6	-5.0	106.0
NS(=O)(=O)c1cc(C(=O)OCC(=O)c2ccc3c(c2)OCCO3)ccc1Cl	41.2	81.5	i	0.88	8.3	x	99.7
CN(C)/C=N/c1nc(-c2ccc3c(c2)OCO3)cs1	x	x	i	0.79	-2.4	x	104.4
O=C(CC(C(=O)N1CCc2ccccc21)n1ccnc1)N1CCc2ccccc2C1 (configuration not stated)	46.1	150.3	x	x	13.7	-1.0	100.2
COc1cc(C2CC(=O)Oc3c2c(=O)n(C)c2ccccc32)cc(OC)c1OC (configuration not stated)	-40.7	94.4	i	0.9	-0.9	x	97.7
CC12/C(=N/O)C3C4CC5C3/C(=N/O)C1C5C42 (configuration not stated)	x	x	i	0.89	-7.5	-0.6	99.2
CN(C)NC1CCS(=O)(=O)C1 (configuration not stated)	16.7	71.9	i	0.97	-19.0	-2.7	108.2
CCCc1nnc(NC(=O)Cn2c(=O)oc3ccccc32)s1	-5.6	77.6	x	x	-1.4	-1.1	94.7
COc1ccc(C[C@H]2CN3C(=NC[C@@H]3Cc3ccc(O)cc3)N2CCNC(=O)c2ccc(C)c(Br)c2)cc1	x	x	i	0.93	-10.4	x	97.3

The list goes on; it opens with the 3 that closed the last part.
canonical_smiles	INS promoter inh	INS promoter inh cell count	HSV replic up	HSV replic up primary fold	PKD1 kinase inh	GALR2 agonist	RGS16-Gao
CN(C)NC1CCS(=O)(=O)C1 (configuration not stated)	16.7	71.9	i	0.97	-19.0	-2.7	108.2
CCCc1nnc(NC(=O)Cn2c(=O)oc3ccccc32)s1	-5.6	77.6	x	x	-1.4	-1.1	94.7
COc1ccc(C[C@H]2CN3C(=NC[C@@H]3Cc3ccc(O)cc3)N2CCNC(=O)c2ccc(C)c(Br)c2)cc1	x	x	i	0.93	-10.4	x	97.3
CCCCCCCCc1c(O)nc(-n2[nH]c(C)c(CCO)c2=O)[nH]c1=O	x	x	i	0.98	-3.9	x	101.3
Cc1ccc(-n2cc(C(=O)O)c(=O)cc2C)c(C)c1	x	x	i	1	1.6	x	95.6
COc1cc(C)c(C#N)c(OC)n1	x	x	i	0.95	13.2	1.3	96.0
C=CCn1c(N)c(C(=O)Nc2cccc(C)c2)c2nc3ccccc3nc21	-19.2	87.6	i	1	30.5	14.5*	106.5
Cc1ccc(C)c2[nH]c(=O)c(CCNC(=O)c3ccco3)cc12	-33.3	70.8	i	0.92	1.5	x	109.8
COc1cc(OC)cc(C(=O)NCCC(=O)NCCc2ccc(OC)c(OC)c2)c1	-24.3	106.6	i	0.96	-8.9	-0.2	60.5
CCn1c(Cc2cccs2)nnc1SCC(=O)c1ccc(C)cc1	-433.3	93.9	i	0.98	3.0	-0.3	111.2
CCOC(=O)N1CCN(C(=O)COc2ccc(Cl)cc2C)CC1	-192.9	63.4	i	0.97	-7.3	-2.7	97.8
CCN(Cc1ccccc1)C(=O)CSc1nc(C)cc(C)c1C#N	x	x	i	0.98	-11.9	0.2	107.2
Cc1ccc(C)c(NC(=O)C2=CCN(S(=O)(=O)c3ccc(F)cc3)CC2)c1	-12.2	59.1	x	x	-7.3	-2.4	58.7
O=C(Nc1ccc2oc(-c3ccccc3)nc2c1)C1CCCO1 (configuration not stated)	39.7	97.9	i	0.98	-0.1	-0.2	104.2
O=C(OCc1nnc(-c2ccccc2)o1)c1ccc2ccccc2n1	25.0	94.8	i	0.93	-5.0	-0.2	101.0
CN1CCN(CC(=O)Nc2cc(N3CCOCC3)ccc2[N+](=O)[O-])CC1	-5.7	139.3	i	0.97	-12.8	0.5	92.1
Cc1nc2ncnn2c(N2CCCC(C(=O)Nc3ccc4c(c3)CCC4)C2)c1C (configuration not stated)	40.7	117.7	i	0.82	7.4	-0.7	106.6
